High-throughput results from PubChem BioAssay.
RE007 growth inh: less growth of the S. pombe RE007 Vpr strain; S. pombe RE007 Vpr strain, BacTiter-Glo ATP luminescence, 24 h; control for the full effect not named in the record; Potency, µM (series often up to 92.2 µM), inactives show at the highest dose activity change, negative = less growth; hit rate 0.21% among 360,000; active = well fitted falling curve with a large enough effect; inconclusive = small, poorly fitted or top-dose-only effect; inactive = no such curve, though single readings can be large or run the other way;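 note: % is set by controls: 0 for no effect and ±100 for the full control effect; nearly all actives have a fitted effect of over 50% in size; the assay follows cell death caused by Vpr and the record does not say whether a fall means rescue or toxicity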
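Fission yeast RE007 carrying one integrated HIV-1 vpr copy, seeded at OD 0.01 in PMG+AL medium with 23 nL pinned compound. Grown 24 h at 30 degrees; viability read by BacTiter-Glo luminescence after 5 min.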
Lassa entry inh: inhibitors of Lassa virus binding or cell entry | Lassa virus pseudotype entry inhibition, cell reporter; control for the full effect not named in the record | hit rate 1.2% among 300,000 | Potency, µM (titrated, usually from 37.9 µM), without a hit: top-dose activity change, negative = inhibition, actives largely listed as inhibitors; active means well fitted inhibition curve with a large enough effect; inconclusive means small, poorly fitted or top-dose-only effect, or effect the other way; inactive means flat fitted curve, though single readings scatter; tested in HEK293 cells; note: % is set by controls: 0 for no effect and ±100 for the full control effect; nearly all actives have a fitted effect of over 50% in size; luciferase read-out
SARS PLpro yeast: blocks SARS-CoV papain-like protease in a yeast assay; Potency, µM (top dose mostly 32.9 µM), without a hit: at the highest dose activity, positive = growth rescue; hit rate 0.19% among 330,000; S. cerevisiae expressing SARS-CoV PLpro, growth rescue; control for the full effect not named in the record; note: 0% is about no effect; nearly all actives have a fitted effect of over 55% in size; growth read by luminescence after 48 h
Cruzain Triton: cruzain (T. cruzi) inhibition with detergent. purified cruzain, Z-FR-AMC fluorescence, 0.01% Triton. P25779. Potency, µM, for the others: max response, negative = inhibition, most hits filed as inhibitors. hit rate 0.43% among 200,000. AID 1478; active = well fitted curve in the direction sought with a large enough effect; inconclusive = small, poorly fitted or top-dose-only effect, or another doubt; inactive = no such curve, though single readings can be large; an effect the other way counts as inactive or inconclusive;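 note: plate controls were neutral wells for no effect and buffer without enzyme for full effect; nearly all actives have a fitted effect of over 40% in size; top concentration of the series not given in the record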
Target sequence (P25779 123-467 limits assumed): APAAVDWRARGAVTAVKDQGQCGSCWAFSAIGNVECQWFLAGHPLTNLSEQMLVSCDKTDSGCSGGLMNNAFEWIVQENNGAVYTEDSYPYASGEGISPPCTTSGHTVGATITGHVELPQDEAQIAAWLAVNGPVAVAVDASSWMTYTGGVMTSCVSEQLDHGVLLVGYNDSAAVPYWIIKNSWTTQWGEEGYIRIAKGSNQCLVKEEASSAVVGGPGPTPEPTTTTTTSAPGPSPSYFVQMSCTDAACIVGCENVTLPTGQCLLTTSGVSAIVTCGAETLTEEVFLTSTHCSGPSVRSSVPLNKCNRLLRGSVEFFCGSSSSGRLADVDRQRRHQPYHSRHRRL
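Sodium acetate buffer (100 mM, pH 5.5) containing 5 mM DTT and 0.01% Triton X-100 hosted 1.5 nM cruzain and test compound for 15 min at room temperature. Cleavage of 2 uM Z-FR-AMC was then tracked by fluorescence.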
NS1 function inh: inhibitors of influenza NS1 protein function; S. cerevisiae slowed by influenza A NS1, growth recovery by OD600; Potency, µM (top dose mostly 46.1 µM), for inactives: at the top dose activity, positive = more growth; hit rate 0.4% among 270,000; note: actives are rising curves; nearly all actives have a fitted effect of over 50% in size
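In this qHTS, NS1 from influenza A is expressed in budding yeast, where it slows growth. Cells are switched from glucose to 2% galactose medium (pH 6.0, -URA), treated with compound, and growth recovery is read at OD600.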
StopGo reporter: lowers the luciferase signal of an FMDV 2A StopGo reporter. human cells with a luciferase reporter of 2A StopGo recoding; control for the full effect not named in the record. Potency, µM (series often up to 57.9 µM), without a hit: at the top dose signal change, negative = less light. hit rate 1.2% among 410,000; active = well fitted falling curve with a large enough effect; inconclusive = small, poorly fitted or top-dose-only effect; inactive = no such curve, though single readings can be large or run the other way; tested in HEK293T cells; note: % is set by controls: 0 for no effect and ±100 for the full control effect; nearly all actives have a fitted effect of over 45% in size; luciferase light after 4 h
Marburg entry inh: inhibitors of Marburg virus binding or cell entry; Marburg virus pseudotyped entry inhibition, cell reporter; control for the full effect not named in the record; about a third of the inactives were read at about 46 µM; Potency, µM (doses to about 37.8 µM), for the others: at the highest dose activity change, negative = inhibition, actives largely listed as inhibitors; hit rate 1.8% among 300,000; active = well fitted inhibition curve with a large enough effect; inconclusive = small, poorly fitted or top-dose-only effect, or effect the other way; inactive = flat fitted curve, though single readings scatter; tested in HEK293 cells; about a fifth of its hits are not listed in these tables; note: % is set by controls: 0 for no effect and ±100 for the full control effect; luciferase read-out
Cruzain noTriton: cruzain (T. cruzi) inhibition without detergent | P25779 | purified cruzain, Z-FR-AMC fluorescence, no detergent | Potency, µM, without a hit: max response, negative = inhibition, actives largely listed as inhibitors | hit rate 2.3% among 200,000 | AID 1476; active = well fitted curve in the direction sought with a large enough effect; inconclusive = small, poorly fitted or top-dose-only effect, or another doubt; inactive = no such curve, though single readings can be large; an effect the other way counts as inactive or inconclusive;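 note: plate controls were enzyme without inhibitor for no effect and buffer without enzyme for full effect; nearly all actives have a fitted effect of over 40% in size; top concentration of the series not given in the record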
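Detergent-free condition (0.00005% Triton X-100) in acetate buffer pH 5.5 with DTT. 1.5 nM enzyme and compound were pre-mixed 15 min, then 2 uM Z-FR-AMC substrate added; reaction progress from fluorescence change between first and third reads (60 s).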
Starred values were filed as active, the others as inactive; u = inconclusive; x = no result given; & = joins results of further samples; [ ] = remark or other dose. Unless noted, calls come from the whole dose curve; as a rule, active means well fitted rising curve with a large enough effect; inconclusive means small, poorly fitted or top-dose-only effect; inactive means no such curve, though single readings can be large or run the other way. Potency is the fitted concentration of half-maximal effect.

SMILES	RE007 growth inh	Lassa entry inh	SARS PLpro yeast	Cruzain Triton	NS1 function inh	StopGo reporter	Marburg entry inh	Cruzain noTriton
COc1ccccc1N1CCN(S(=O)(=O)CCNC(=O)CCCc2ccccc2)CC1	1%	u	-3%	x	x	-20%	u	x
Cc1ccc(C(=O)NCCc2nc3ccccc3[nH]2)cc1[N+](=O)[O-]	6%	-2%	-4%	4.5µM*	-4%	-18%	-23%	16%
CC(C)(C)c1ccc(/C=C2\CCn3c2nc2cc(C(=O)O)ccc2c3=O)cc1	0%	x	2%	x	4%	-25%	x	x
CCc1ccc(Nc2n[n+](-c3ccccc3)c(-c3ccc(SC)cc3)s2)cc1	3%	x	-2%	x	20%	-4%	x	x
CC(=O)c1cc(-c2ccccc2)n(CCC(=O)NC2CCC(C)CC2)c1C (stereo not given)	7%	-11%	-14%	-2.5%	11%	-28%	u	8%
CCOc1ccccc1C(=O)OCC(=O)NCC1CCCO1 (stereo not given)	-9%	-1%	-4%	x	x	-13%	15%	x
CN(c1cccc(Cl)c1)S(=O)(=O)c1cccc(C(=O)NC2=NCCS2)c1	-8%	u	-18%	-0.5%	-65%	u	-14%	-10%
CC(NC(=O)c1cc(S(=O)(=O)N(C)C)ccc1N1CCCC1)C1CC2CCC1C2 (stereo not given)	3%	4%	-3%	x	x	-3%	-29%[46.1 µM]	x
Cc1cccc(C)c1NC(=O)CN(C1CCCCC1)S(C)(=O)=O	4%	-12%	-3%	x	-3%	-1%	-5%	x
CCN(CCn1cccn1)C(=O)CC1C(=O)NCCN1Cc1cc(OC)cc(OC)c1 (stereo not given)	6%	x	0%	x	4%	-18%	x	x
NC(=O)c1c(NC(=O)COC(=O)c2ccc(O)c(Cl)c2)sc2c1CCCC2	-17%	17%[46.1 µM]	2%	x	x	5%	u	x
CC(C)Cc1nc2ccc(N)cc2[nH]1	-16%	1%	-2%	x	3%	13%	15%[46.1 µM]	x

Part of the list above, with two lines to a compound.
Each structure is followed by: RE007 growth inh	Lassa entry inh	SARS PLpro yeast	Cruzain Triton	NS1 function inh	StopGo reporter	Marburg entry inh	Cruzain noTriton
Cc1ccc(C(=O)NCCc2nc3ccccc3[nH]2)cc1[N+](=O)[O-]
    6%	-2%	-4%	4.5µM*	-4%	-18%	-23%	16%
CC(C)(C)c1ccc(/C=C2\CCn3c2nc2cc(C(=O)O)ccc2c3=O)cc1
    0%	x	2%	x	4%	-25%	x	x
CCc1ccc(Nc2n[n+](-c3ccccc3)c(-c3ccc(SC)cc3)s2)cc1
    3%	x	-2%	x	20%	-4%	x	x
CC(=O)c1cc(-c2ccccc2)n(CCC(=O)NC2CCC(C)CC2)c1C (stereo not given)
    7%	-11%	-14%	-2.5%	11%	-28%	u	8%

Continuation.
SMILES	RE007 growth inh	Lassa entry inh	SARS PLpro yeast	Cruzain Triton	NS1 function inh	StopGo reporter	Marburg entry inh	Cruzain noTriton
Fc1ccc(CSc2ncnc3c2ncn3C2CCCCO2)cc1 (stereo not given)	-1%	10%[46.1 µM]	x	x	x	19%	-4%	x
COc1ccc(NC(=O)CSc2nc3ccccc3n2Cc2cccc(OC)c2)cc1	x	-2%[46.1 µM]	x	-3.7%	x	-14%	x	27%
CCCNS(=O)(=O)c1ccc(CCC(=O)Nc2cc(Cl)ccc2Oc2ccccc2)cc1	0%	u	8%	-2.8%	4%	u	u	0%
CCOc1cc(C)c(C(C)C)cc1S(=O)(=O)n1cnc(C)c1	-11%	u	-2%	x	-3%	24%	u	x
CCOc1cc(N2CCOCC2)c(OCC)cc1NC(=O)C1CCCC1	-1%	3%	-1%	-3.0%	-10%	-13%	5%	-9%
O=C1CSC(c2ccncc2)N1Cc1ccco1 (stereo not given)	-8%	10%	-1%	2.0%	1%	3%	u	-4%
CC(=O)c1sc(NC(=O)Cc2c(F)cccc2Cl)nc1C	4%	0%	2%	x	2%	15%	0%[46.1 µM]	x
CCOc1ccc(CN2CCN(Cc3nc(C(C)C)cs3)CC2CCO)cc1 (stereo not given)	-6%	0%	0%	x	-1%	u	-25%[46.1 µM]	x
O=c1cc(-c2ccccc2)c2c([nH]1)CCCC2	18%	-22%[14.3 µM]	-4%	7.2%	-12%	-18%	-6%	7%
COc1ccc(CCNC(=O)COc2nsnc2N2CCOCC2)cc1OC	4%	8%	-1%	3.3%	1%	10%	-2%&8%	-2%
O=C(O)c1ccccc1S(=O)(=O)Cc1ccccc1	0%	8%	1%	2.0%	-1%	x	1%	-1%
Cc1cccc(C)c1NC(=O)CSc1nnnn1C	8%	u	1%	-0.2%	0%	x	4%	-6%
O=c1cc(-c2ccc(O)c(O)c2)oc2ccc3ccccc3c12	2%	u	0%	x	x	6.3µM*	u	x
CSc1cccc(NC(=O)c2cc3c(COC(C)=O)cnc(C)c3oc2=O)c1	x	-9%[46.1 µM]	x	0.2%	x	-12%	x	2%
Cc1cc(-c2cc(N)n(-c3ccccc3)n2)c(C)n1C1CCCC1	-9%	7%	1%	2.5%	9%	x	8%	-27%
CS(=O)(=O)NCCCNc1c(Cl)cccc1[N+](=O)[O-]	5%	-10%	-4%	-1.4%	1%	12%	-7%[46.1 µM]	0%
O=C/C=C/c1c(-c2ccccc2)cc2oc3ccccc3cc1-2	-27%	u	-11%	x	16%	-8%	-23%[46.1 µM]	x
CC(C)CCNC(=O)c1ccc2c(c1)N(C)C(=O)c1ccccc1S2	-8%	u	-2%	0.7%	-8%	41%&30%[activator]	u	-6%
Cc1cc(=O)[nH]c(NCc2ccc(Cl)cc2)n1	5%	x	3%	x	9%	-15%	x	x
COc1cc(/C=C/C(=O)OCC(=O)NCCc2ccc(F)cc2)ccc1OC(F)F	-3%	2%	-1%	x	x	-8%	13%	x
COc1ccc(F)cc1C(=O)C1CCCN(Cc2cnc(N3CCCC3)s2)C1 (stereo not given)	-3%	3%	-1%	x	1%	-11%	4%[46.1 µM]	x
O=C(c1nn(-c2ccccc2)c(=O)c2ccccc12)N1CCN(c2ccccn2)CC1	-4%	-11%	-3%	3.3%	-20%	-17%	u	-3%
O=C(Nc1ccnn1C1CCN(CCCC2CCCC2)CC1)c1ccccc1	0%	x	7%	x	-12%	-27%	x	x
COC(=O)c1sc(C(F)(F)F)c(-c2ccccc2)c1S(=O)(=O)N(C)C	3%	u	1%	x	7%	-21%	17%	x

Another view of part of the listing above:
CSc1cccc(NC(=O)c2cc3c(COC(C)=O)cnc(C)c3oc2=O)c1
  RE007 growth inh: x; Lassa entry inh: -9%[46.1 µM]; SARS PLpro yeast: x; Cruzain Triton: 0.2%; NS1 function inh: x; StopGo reporter: -12%; Marburg entry inh: x; Cruzain noTriton: 2%
Cc1cc(-c2cc(N)n(-c3ccccc3)n2)c(C)n1C1CCCC1
  RE007 growth inh: -9%; Lassa entry inh: 7%; SARS PLpro yeast: 1%; Cruzain Triton: 2.5%; NS1 function inh: 9%; StopGo reporter: x; Marburg entry inh: 8%; Cruzain noTriton: -27%
CS(=O)(=O)NCCCNc1c(Cl)cccc1[N+](=O)[O-]
  RE007 growth inh: 5%; Lassa entry inh: -10%; SARS PLpro yeast: -4%; Cruzain Triton: -1.4%; NS1 function inh: 1%; StopGo reporter: 12%; Marburg entry inh: -7%[46.1 µM]; Cruzain noTriton: 0%
O=C/C=C/c1c(-c2ccccc2)cc2oc3ccccc3cc1-2
  RE007 growth inh: -27%; Lassa entry inh: u; SARS PLpro yeast: -11%; Cruzain Triton: x; NS1 function inh: 16%; StopGo reporter: -8%; Marburg entry inh: -23%[46.1 µM]; Cruzain noTriton: x

Carrying on.
SMILES	RE007 growth inh	Lassa entry inh	SARS PLpro yeast	Cruzain Triton	NS1 function inh	StopGo reporter	Marburg entry inh	Cruzain noTriton
COc1ccc(Cc2nnc(SCC(=O)Nc3ccc(C)c(Cl)c3)[nH]c2=O)cc1	7%	-3%	-4%	x	x	0%	-4%[46.1 µM]	x
CCc1ccc(NC(=O)c2ccc(-c3ccccc3)s2)cc1	x	-2%[46.1 µM]	x	-2.8%	x	69%[activator]	21%[46.1 µM]	u
O=C(CSc1nc(=O)n(CCCN2CCOCC2)c2c1CCCC2)Nc1cccc(F)c1	-8%	5%	-1%	x	x	-8%	2%	x
COc1ccc(S(=O)(=O)Cc2ccc(C(=O)NC3CCCCCC3)o2)cc1	7%	x	-2%	x	-13%	-25%	x	x
O=C(O)C(Cc1c[nH]c2ccccc12)NS(=O)(=O)c1ccccc1 (stereo not given)	-8%	1%	-11%	-4.7%	12%	0%	-19%	-8%
Cc1cccc(C)c1OCCOCCN1CCN(C)CC1	-2%&-1%	u	13%	2.2%	u	-6%&-22%	u	2%
CCOC(=O)C1CCN(C(=O)CCCNC(=O)Cn2cnc3sc(C)c(C)c3c2=O)CC1	28%	10%	0%	x	0%	-6%	9%[46.1 µM]	x
Cn1cc(/C=C2\SC(=S)N(NC(=O)c3cccc(Cl)c3)C2=O)c2ccccc21	-12%	x	-1%	x	-45%	3%	x	x
Cc1ccc(CNC(=O)COC(=O)c2cnc(C)cn2)cc1	-3%	5%[46.1 µM]	3%	x	x	0%	u	x
COC(=O)c1cc(CN2C(=O)c3ccccc3C2=O)c(O)c([N+](=O)[O-])c1	6%	x	-1%	x	0%	-12%	x	x
COc1ccc(OC)c(/C=C(/C#N)c2nc(-c3ccc(-c4ccccc4)cc3)cs2)c1	x	0%[46.1 µM]	x	-1.1%	x	18%	x	0%
CC(=O)Oc1ccc2nc(CN3C(=O)c4ccc([N+](=O)[O-])cc4C3=O)oc(=O)c2c1	8%	2%	0%	x	x	-27%	0%[46.1 µM]	x
CCCCCc1nnc(NC(=O)Cc2cccs2)s1	8%	0%	-7%	-1.5%	-2%	20%	-4%	-7%
CCc1noc(C)c1C(=O)N1CCCC1	12%	19%[14.3 µM]	-5%	2.5%	8%	19%	9%	12%
COc1ccc(-c2ccc(=O)n(Cc3c(F)cccc3Cl)n2)cc1	4%	x	-2%	x	-39%	-8%	x	x

Hits appear at their usual frequency. Share with any hit: about 4.7%.
